Screening data deposited in PubChem by several laboratories.
HSV replic up – increases HSV replication in cells | HSV replication augmentation in cells, fold increase | maximum fold increase | 220,000 compounds, 0.005% hits;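 active = peak rise of 1.5-fold or more in the series; tested in PC3 cells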;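 also: first round at 10 µM; read as green reporter fluorescence; hits show the peak of a series up to 25 µM; 1 = signal of infected wells without compound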
Insulin prom inh – TRM-6 insulin promoter activity inhibition; TRM-6 cells (human fetal islet line), insulin promoter-eGFP reporter, imaging; reporter expression induced with tamoxifen; inhibition, % at 2 µM; 130,000 compounds, 0.9% hits; AID 1273;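 active = inhibition above the mean plus 3 SD, with well images judged a real hit on visual review, cut at about 60% in these data, passing the limit was not always enough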
RGS16-Gao HTS – RGS16-Galphao interaction regulator (human). bead-based flow cytometry RGS16-Galphao binding, fluorescence; actives lie on both sides. 220,000 compounds, 0.38% hits. O15492+P09471. binding response (% of control), % at 10 µM;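 active = below 25% or above 175%, edge rows of some plates excepted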;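 also: Galphao activated by GDP with aluminum fluoride before binding; 100% = wells without compound and 0% = beads without RGS; some results beyond the cut were filed as inactive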
Target sequence (O15492 whole entry, looked up): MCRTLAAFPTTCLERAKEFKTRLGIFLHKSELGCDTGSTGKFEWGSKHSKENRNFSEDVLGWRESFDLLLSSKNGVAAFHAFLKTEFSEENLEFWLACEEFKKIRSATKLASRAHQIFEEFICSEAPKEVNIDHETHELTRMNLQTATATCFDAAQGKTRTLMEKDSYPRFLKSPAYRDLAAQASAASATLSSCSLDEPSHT
Target sequence (P09471 whole entry, looked up): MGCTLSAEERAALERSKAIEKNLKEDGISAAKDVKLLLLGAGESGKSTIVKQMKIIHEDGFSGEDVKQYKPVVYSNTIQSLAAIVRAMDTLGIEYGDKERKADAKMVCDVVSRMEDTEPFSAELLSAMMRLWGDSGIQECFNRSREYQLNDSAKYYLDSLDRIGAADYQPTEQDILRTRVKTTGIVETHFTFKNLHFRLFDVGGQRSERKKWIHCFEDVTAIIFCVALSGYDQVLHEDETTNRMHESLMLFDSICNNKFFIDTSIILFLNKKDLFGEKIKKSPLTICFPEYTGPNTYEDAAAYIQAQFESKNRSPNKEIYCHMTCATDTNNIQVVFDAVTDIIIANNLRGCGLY
GALR2 ag – agonists of human galanin receptor 2 (GALR2); activation, %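 (tested at 5 µM)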; 140,000 compounds, 0.48% hits; GALR2-expressing cells, agonist activation read-out; AID 803;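 active = above mean plus 3 SD of all compounds, about 5% in these data, not always enough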;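 also: 0% = vehicle buffer wells and 100% = reference agonist at full effect; tested in CHO reporter cells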
Target sequence (O43603 whole entry, looked up): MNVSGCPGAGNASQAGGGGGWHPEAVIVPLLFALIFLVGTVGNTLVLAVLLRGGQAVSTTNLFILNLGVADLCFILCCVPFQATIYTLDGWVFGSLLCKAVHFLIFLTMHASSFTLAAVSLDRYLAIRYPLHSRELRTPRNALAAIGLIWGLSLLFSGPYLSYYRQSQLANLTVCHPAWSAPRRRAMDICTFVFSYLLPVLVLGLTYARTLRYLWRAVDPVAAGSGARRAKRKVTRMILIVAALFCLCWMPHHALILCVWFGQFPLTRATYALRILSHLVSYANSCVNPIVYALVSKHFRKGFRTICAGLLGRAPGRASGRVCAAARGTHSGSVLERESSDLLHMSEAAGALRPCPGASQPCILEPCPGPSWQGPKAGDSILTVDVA
PKD1 inh – blocks activity of human protein kinase D1 | Q15139 | PKD1 kinase fluorescence polarization assay | inhibition, %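 (about 10 µM by stock and volumes)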 | 200,000 compounds, 0.056% hits;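 active = inhibition of 50% or more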;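 also: controls were vehicle for no effect and a reference inhibitor for full effect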
Insulin prom inh cell count – further read-out of Insulin prom inh, marked with its call; normalized cell count, %; measured here: cell count, toxicity; reference of the scale not given here;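 cells exposed to compound for 48 h; stained nuclei by imaging scaled within each plate; lower means fewer cells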
HSV replic up primary fold – recorded beside HSV replic up, whose call it bears; fold increase; compound at 10 µM; measured here: primary screen fold increase 10 uM; tested in PC3 cells;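 GFP signal in the first replicate; 1 = infected wells without compound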
Starred values were filed as active, the others as inactive; i = inactive; . = no result given.

Start of the data: the first two entries (preview)
SMILES	HSV replic up	HSV replic up primary fold	Insulin prom inh	Insulin prom inh cell count	RGS16-Gao HTS	GALR2 ag	PKD1 inh
CC(C)C(NS(=O)(=O)c1ccc2c3c(cccc13)C(=O)N2)C(=O)O (stereo not given)	i	1	.	.	.	-0.9	-13
COc1ccc(O)c(C(=O)/C=C/c2cc3ccccc3o2)c1	i	0.98	19	90	.	-1.6	-4

All compounds of this part, repeating the preview:
SMILES	HSV replic up	HSV replic up primary fold	Insulin prom inh	Insulin prom inh cell count	RGS16-Gao HTS	GALR2 ag	PKD1 inh
CC(C)C(NS(=O)(=O)c1ccc2c3c(cccc13)C(=O)N2)C(=O)O (stereo not given)	i	1	.	.	.	-0.9	-13
COc1ccc(O)c(C(=O)/C=C/c2cc3ccccc3o2)c1	i	0.98	19	90	.	-1.6	-4
CCCCC1CC(/C(C)=N/NC(N)=O)OC1=O (stereo not given)	i	0.88	49	125	98	-1.0	0
CC1CCC2(CC1)NC(=O)N(CC(=O)Nc1ccc3c(c1)CCC3)C2=O (stereo not given)	i	0.69	.	.	102	.	.
CC(=O)Nc1cc(C(=O)NCc2ccco2)ccc1Sc1ccc(F)cc1	i	1	35	69	50	-0.2	-7
CCOC(=O)C1C(=O)NCC1c1ccccc1 (stereo not given)	i	0.71	45	104	93	-1.9	-6
O=C(Nc1ccc(Br)cc1)c1cc2ccccn2n1	i	1	.	.	99	.	.
COC(=O)C1=C(C)N(CCc2cc(OC)c(OC)c(OC)c2)C(=O)N[C@H]1c1ccc(Br)cc1	.	.	-40	106	104	0.2	4
Cc1cc(=O)c2cccc(Br)c2[nH]1	i	1	24	119	106	-2.3	-1
Fc1ccc(N2CCN(Cc3cnc(Oc4ccc(Br)cc4)s3)CC2)cc1	i	1.1	.	.	162	-1.7	5
CCCCC(=O)Nc1nc2c(OC)cc([N+](=O)[O-])cc2s1	i	1.1	.	.	94	.	-2
Cc1cc(C)c(S(=O)(=O)N(C)CC(N)=O)c(C)c1	i	0.89	-36	103	97	0.0	-11
Fc1ccc(C2=Nn3c(nnc3-c3n[nH]c4c3CCC4)SC2)cc1	i	0.92	.	.	100	-0.7	-5
O=C(Nc1ccc([N+](=O)[O-])cc1)Nc1ccc(Cl)cc1F	i	0.96	.	.	-52	.	-8
Clc1cccc(Oc2ncc(CN3CCOCC3)s2)c1	i	1	-84	112	92	-2.1	-4
CCC1(c2ccc(F)cc2)NC(=O)N(CC(=O)Nc2cc(S(=O)(=O)N(C)C)ccc2Cl)C1=O (stereo not given)	i	0.93	-47	137	99	.	-6
CS(=O)(=O)N(CC(=O)O)c1cccc(Cl)c1	i	1	-33	182	97	-3.4	-7
CC(=O)c1ccc(S(=O)(=O)N2CCN(C(C)=O)CC2)cc1	i	1.1	.	.	105	.	3
Cc1ccc([N+](=O)[O-])cc1-c1[nH]c(-c2ccc(O)c(O)c2)nc1-c1ccccc1	i	0.88	25	83	105	-0.9	-7
Cc1ccc(S(=O)(=O)N(CC(=O)N2CCOCC2)C2CCCCC2)cc1	i	0.91	0	107	82	-0.4	1
CCCCc1c(C)nn(-c2nnc3c4ccccc4n(CC)c3n2)c1C	i	0.79	.	.	102	0.6	0
Oc1nc(-c2ccc(Br)cc2)n2ccncc12	i	1	.	.	96	.	1
COc1ccc(N2CC(C(=O)N/N=C/c3c[nH]c4ccccc34)CC2=O)cc1 (stereo not given)	i	1	51	126	104	.	-2
CC1CC2(CC(C)(C(=O)CSc3nc4ccccc4s3)OC2=O)C(=O)O1 (stereo not given)	i	0.85	-42	179	105	-3.2	-6
O=C(O)CCC(=O)NCC1OCCc2ccccc21 (stereo not given)	i	0.73	-237	91	102	-3.0	-6
CCc1n[nH]c2c1/C(=N\O)CC(c1ccccc1)C2 (stereo not given)	i	0.98	58	195	101	0.9	7
O=C(NC1CCCc2ccccc21)c1ccc(Cl)nc1 (stereo not given)	i	1	-13	129	104	-1.4	-5
CCc1cc2cccc(C)c2nc1SCC(=O)Nc1nonc1C	i	0.97	.	.	106	.	0
C/C(=N\O)c1cccc(Br)c1	i	1	.	.	99	.	.
COc1cccc(/C=N/NC(=O)c2ccc3nc[nH]c3c2)c1	i	1	.	.	94	.	.
COc1ccccc1/C=N/Nc1nccnc1Cl	i	1	9	114	96	-2.6	-5
CC1CCc2sc(C(=O)Nc3ccc(N4CCOCC4)cc3)cc2C1 (stereo not given)	i	0.82	-73	119	81	.	2
CO/N=C/C(C(C)=O)C(=O)Nc1ccc(Cl)cc1Cl (stereo not given)	i	1	30	79	99	.	3
CCC(c1nnc(SCC(=O)Nc2nnc(-c3ccccc3)o2)o1)N(C)C (stereo not given)	i	1.1	23	86	104	-2.2	-4
O=C(NCCCN1CCN(c2ccccc2F)CC1)C1CCN(S(=O)(=O)N2CCOCC2)CC1	i	0.97	.	.	93	-0.5	3
CN1C(=O)[C@@H]2[C@@H]3C[C@@H]([C@H]4ON=C(c5ccc(Cl)cc5)[C@@H]34)[C@@H]2C1=O	i	1	-23	83	124	-0.6	5
CC(C)Cn1c(NCCN(C)C)nc2c1c(=O)[nH]c(=O)n2C	i	1	.	.	95	-0.5	7
CC(C)Cc1nc2oc3c(=O)[nH]cnc3c2c2c1CCC2	i	0.86	.	.	103	-0.9	-4
Oc1ccc(N=Nc2n[nH]c(-c3ccc(Br)cc3)n2)cc1	i	0.87	-3	122	102	-1.8	-8
COc1cc2c(cc1OC)C1=C(C#N)CCC(=NC(=O)c3ccco3)N1CC2	i	0.91	-20	89	96	.	-17
Cc1cc(C[n+]2ccsc2N)c2ncccc2c1	i	0.94	.	.	103	.	.
CCOC(=O)c1nnn(-c2nonc2-n2cccc2)c1-c1cccc([N+](=O)[O-])c1	i	0.78	.	.	101	.	1
O=C(Nc1ccccc1N1CCOCC1)C1Cc2ccccc2CN1C(=O)c1ccco1 (stereo not given)	i	0.77	-6	38	101	-1.9	-1
O=C1C=C(c2ccccc2)C(=O)N1Nc1ccccc1	i	0.74	-21	113	90	0.2	10
O=C(CCCN1C(=O)/C(=C/c2cccc(Br)c2)SC1=S)Nc1ccccn1	i	0.89	.	.	106	-2.5	-5
CS(=O)(=O)c1ncc(CO)n1Cc1ccccc1	i	0.91	.	.	100	.	-2
COc1ccc(NC(C)C(=O)N/N=C/c2ccc([N+](=O)[O-])s2)cc1 (stereo not given)	i	0.71	.	.	57	.	-2
COc1ccccc1OCc1nc(-c2cccc([N+](=O)[O-])c2)no1	i	0.9	.	.	105	.	4
Cc1cc(F)ccc1NC(=O)c1cccnc1	i	0.88	.	.	99	.	-1
Cc1nc(Oc2ccc(S(=O)(=O)N3CCOCC3)cc2Cl)c2c3c(sc2n1)CCCC3	i	0.84	.	.	113	0.8	-11
Cc1nnc(SCC(N)=O)n1CC1CCCO1 (stereo not given)	i	0.9	.	.	98	-0.8	-18
CCCCCCn1c(CN2CCN(C(=O)c3ccco3)CC2)nc2c1c(=O)n(C)c(=O)n2C	i	1	29	131	104	0.4	-4
O=C(Cc1ccccc1)NNC(=O)Nc1ccc(Cl)c(Cl)c1	i	0.85	-6	86	88	-2.5	-12
Cn1cc(SCC(=O)NCc2ccc3c(c2)OCO3)c2ccccc21	i	1.1	.	.	101	-1.7	0
COc1ccc(-c2c(NC(=O)c3ccco3)n(-c3ccccc3)nc(C)c2=O)cc1	i	1.1	.	.	83	.	.
Cc1sc(NC(=O)C2CCCCC2C(=O)O)c(C(N)=O)c1-c1ccc(C(C)C)cc1 (stereo not given)	i	0.95	-39	136	100	-2.6	7

Next records
SMILES	HSV replic up	HSV replic up primary fold	Insulin prom inh	Insulin prom inh cell count	RGS16-Gao HTS	GALR2 ag	PKD1 inh
O=C(c1cccs1)N1CCN(S(=O)(=O)N2CCOCC2)CC1	i	0.97	-179	58	102	-2.9	2
Cc1ccc(-c2csc(NC(=O)c3ccno3)n2)cc1	i	1.1	-18	83	103	-1.2	-4
C/C(CC(=O)NCC(C)C)=N\NC(=O)COc1cc(C)c(Br)cc1Br	i	0.97	-10	105	96	-0.2	-14
O=C(Cn1cnc2c(cnn2-c2ccc(F)cc2)c1=O)NCc1ccco1	i	0.9	-29	163	102	-0.1	4
CC(=O)Nc1cccc(/C(C)=N/NC(N)=S)c1	i	1.1	-29	76	102	.	-2
COc1ccc(S(=O)(=O)NCc2c(-c3ccccc3)noc2C)c(OC)c1	i	1.2	.	.	80	.	.
CCOC(=O)C1C(=O)CC(C)(O)C(C(=O)OCC)C1c1ccc(Br)o1 (stereo not given)	i	0.93	.	.	95	-0.2	-13
Cc1c(NC(=O)/C(C#N)=C/c2ccc(-c3ccccc3Cl)o2)c(=O)n(-c2ccccc2)n1C	.	.	.	.	102	-0.1	-2

Taken from above:
GALR2 ag, Cc1c(NC(=O)/C(C#N)=C/c2ccc(-c3ccccc3Cl)o2)c(=O)n(-c2ccccc2)n1C : -0.1
HSV replic up primary fold, CC(=O)Nc1cccc(/C(C)=N/NC(N)=S)c1 : 1.1
Insulin prom inh, O=C(Cn1cnc2c(cnn2-c2ccc(F)cc2)c1=O)NCc1ccco1 : -29

Going on with the list.
SMILES	HSV replic up	HSV replic up primary fold	Insulin prom inh	Insulin prom inh cell count	RGS16-Gao HTS	GALR2 ag	PKD1 inh
COc1ccc(CN2CCN(S(=O)(=O)c3ccc(F)cc3)CC2)cc1OC	.	.	-50	42	.	-1.4	-9
O=C(CCC1CCCN(C(=O)CCCc2ccccc2)C1)N1CCN(c2ccccn2)CC1 (stereo not given)	i	0.96	.	.	109	.	.
O=c1[nH]ncc(N2CCN(C(c3ccccc3)c3ccccc3)CC2)c1Cl	i	0.94	-4	107	106	-1.7	-10
COC(=O)c1ccc(CSc2ncnc3c2nnn3-c2ccc(F)cc2)o1	i	1	29	168	97	-3.5	6
COc1cc(CN(C)Cc2nc3cc(C(F)(F)F)ccc3c(=O)[nH]2)ccc1OC(F)F	i	0.85	24	101	97	.	1
CCCc1ncc(C(O)c2cccc(OC)c2)n1C (stereo not given)	i	0.83	.	.	88	.	.
CCC(C)[C@H](Nc1nc(-c2ccccc2)nc2c1oc1ccccc12)C(=O)O (stereo not given in full)	i	0.87	0	183	103	0.2	-12
Cc1cccc(N2CCN(CC(=O)Nc3ccc(-n4cnnn4)cc3)CC2)c1C	i	1.1	-36	68	100	-5.1	-7
Cc1nn(C(=O)c2ccccc2)c2c1C(=O)CC(C)(C)C2	i	0.75	-28	125	101	-2.9	-11
Cc1ccc(NC2=C([N+](=O)[O-])CS(=O)(=O)C2)cc1	i	1.1	52	98	97	-0.3	-3
N#Cc1cnn(CC2CCCCC2)c1N	i	0.85	27	113	103	0.2	6
COC(=O)c1cc(-c2cccc(OC)c2)on1	.	.	.	.	104	-0.5	-7
Cc1ccc(S(=O)(=O)Nc2cccc(C(=O)Nc3cc(C)ccn3)c2)cc1	i	0.92	-7	94	116	-0.8	1
CN(C)c1oc(-c2ccccc2F)nc1C#N	i	0.83	.	.	103	-0.4	-14
CN(C)C(=S)Nc1cccc(F)c1	i	0.99	.	.	103	.	.
Cc1cccc(N/C=C(\[N+](=O)[O-])S(=O)(=O)c2ccccc2)c1	i	0.97	41	140	95	.	-7
CC(=O)c1cccc(NC(=O)CN(c2cccc(F)c2)S(C)(=O)=O)c1	i	0.91	58	123	103	-1.1	-11
Cn1c(N)c(C(=O)CSc2ncn[nH]2)c(=O)n(C)c1=O	i	1	.	.	103	.	.
CC(C)(C)NC(=O)NC(=O)COC(=O)CNC(=O)c1cccc(F)c1	i	1.1	-13	72	102	-1.4	8
Cc1noc(NS(=O)(=O)c2ccc(N)cc2)c1C	i	0.7	27	113	98	-0.6	-4
COc1ccc(-c2cn3cc(C)ccc3n2)cc1Br	i	0.99	34	89	99	1.1	-6
Cc1cc(C)nc(NC(=O)c2c(C(=O)O)noc2C)n1	.	.	15	118	107	.	0
Cc1ccc(NS(=O)(=O)c2cc(NC(=O)C(C)Oc3ccccc3)ccc2C)c(C)c1 (stereo not given)	i	0.99	-15	65	107	-1.7	1
O=C(CCCN1C(=O)c2ccccc2C1=O)Nc1ccccn1	i	0.76	-7	205	98	-2.1	-9
NC(=S)NN=C1C2CC3CC(C2)CC1C3	i	1.1	8	122	102	.	-3
CCN(CC)C(=O)Oc1ccc2c(=O)c(-c3ccc(OC)cc3)c(C)oc2c1	i	0.96	-29	140	102	-2.6	-10
Cc1ccccc1-c1nsc(SCC(=O)NCc2ccc3c(c2)OCO3)n1	i	0.91	39	57	98	-1.2	-8
CCOC(=O)c1c(NC(=S)NC)sc2c1CC(C)(C)SC2	i	1.3	.	.	94	-0.6	-7
